# INS promoter inh – TRM-6 insulin promoter activity inhibition. TRM-6 cells (human fetal islet line), insulin promoter-eGFP reporter, imaging; reporter expression induced with tamoxifen. inhibition, % at 2 µM. 130,000 compounds, 0.9% hits. AID 1273;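 active = inhibition above the mean plus 3 SD, with well images judged a real hit on visual review, cut at about 60% in these data, passing the limit was not always enough; inconclusive = inhibition over the cutoff but images rejected on review; inactive = inhibition not above the cutoff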
# RGS16-Gao HTS – RGS16-Galphao interaction regulator (human); O15492+P09471; bead-based flow cytometry RGS16-Galphao binding, fluorescence; actives lie on both sides; binding response (% of control), % at 10 µM; 220,000 compounds, 0.38% hits;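 active = below 25% or above 175%, edge rows of some plates excepted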;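 note: Galphao activated by GDP with aluminum fluoride before binding; 100% = wells without compound and 0% = beads without RGS; some results beyond the cut were filed as inactive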
# Target sequence (O15492 whole entry, looked up): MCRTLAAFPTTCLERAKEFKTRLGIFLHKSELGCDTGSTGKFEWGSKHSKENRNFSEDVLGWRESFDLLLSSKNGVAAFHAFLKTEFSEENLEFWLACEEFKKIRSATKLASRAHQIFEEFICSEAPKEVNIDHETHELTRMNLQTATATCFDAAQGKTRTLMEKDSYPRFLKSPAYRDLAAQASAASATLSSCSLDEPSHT
# Target sequence (P09471 whole entry, looked up): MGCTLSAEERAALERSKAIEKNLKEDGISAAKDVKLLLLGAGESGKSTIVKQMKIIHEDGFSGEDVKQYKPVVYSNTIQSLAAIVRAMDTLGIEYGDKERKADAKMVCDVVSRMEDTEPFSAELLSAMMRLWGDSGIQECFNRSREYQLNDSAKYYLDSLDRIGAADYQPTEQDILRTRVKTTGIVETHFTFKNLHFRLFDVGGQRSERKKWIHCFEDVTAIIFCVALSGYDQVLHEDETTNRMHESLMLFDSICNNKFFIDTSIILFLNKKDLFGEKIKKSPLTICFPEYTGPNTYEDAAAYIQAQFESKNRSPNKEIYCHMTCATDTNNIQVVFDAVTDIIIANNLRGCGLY
# HSV replic up – HSV replication enhancement; HSV replication augmentation in cells, fold increase; maximum fold increase; 220,000 compounds, 0.005% hits;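 active = peak rise of 1.5-fold or more in the series; inconclusive = self-fluorescent or not available for retest; tested in PC3 cells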;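 note: first round at 10 µM; read as green reporter fluorescence; hits show the peak of a series up to 25 µM; 1 = signal of infected wells without compound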
# PKD1 kinase inh – PKD1 (human) kinase inhibition; Q15139; 200,000 compounds, 0.056% hits; PKD1 kinase fluorescence polarization assay; inhibition, %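 (about 10 µM by stock and volumes)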;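 active = inhibition of 50% or more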;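 note: controls were vehicle for no effect and a reference inhibitor for full effect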
# GALR2 agonist – activates the human galanin receptor 2; GALR2-expressing cells, agonist activation read-out; activation, %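 (tested at 5 µM)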; O43603; 140,000 compounds, 0.48% hits;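 active = above mean plus 3 SD of all compounds, about 5% in these data, not always enough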;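 note: 0% = vehicle buffer wells and 100% = reference agonist at full effect; tested in CHO reporter cells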
# Target sequence (O43603 whole entry, looked up): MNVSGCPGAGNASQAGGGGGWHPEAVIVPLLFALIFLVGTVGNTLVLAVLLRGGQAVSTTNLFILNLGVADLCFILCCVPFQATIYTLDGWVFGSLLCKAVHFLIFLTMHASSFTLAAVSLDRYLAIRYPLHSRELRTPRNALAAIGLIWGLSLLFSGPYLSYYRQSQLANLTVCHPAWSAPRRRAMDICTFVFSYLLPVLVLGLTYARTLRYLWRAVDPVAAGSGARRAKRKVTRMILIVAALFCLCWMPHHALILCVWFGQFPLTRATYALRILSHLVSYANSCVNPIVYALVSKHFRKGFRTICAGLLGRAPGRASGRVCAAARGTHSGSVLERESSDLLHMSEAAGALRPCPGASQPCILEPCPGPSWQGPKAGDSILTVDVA
# INS promoter inh cell count – recorded beside INS promoter inh, whose call it bears; normalized cell count, %; measured here: cell count, toxicity; reference of the scale not given here;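 cells exposed to compound for 48 h; stained nuclei by imaging scaled within each plate; lower means fewer cells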
# HSV replic up primary fold – also measured in HSV replic up; calls as there; fold increase; compound at 10 µM; measured here: primary screen fold increase 10 uM; tested in PC3 cells;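 GFP signal in the first replicate; 1 = infected wells without compound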
# * marks the source's active call; other numbers are inactive results; i = inactive; ? = inconclusive; . = not tested or not shown.
SMILES,INS promoter inh,INS promoter inh cell count,RGS16-Gao HTS,HSV replic up,HSV replic up primary fold,PKD1 kinase inh,GALR2 agonist
CC1Cc2ccccc2N1CC(=O)NC(=O)NCc1ccco1 (configuration not stated),-29,127,101,i,1.1,-10,-1.1
Cc1cc(C)cc(OCC(=O)Nc2ccc(N3CCCC3)cc2)c1,.,.,65,i,0.77,-6,-2.1
O=C(NCC1OCCc2ccccc21)C1COc2ccccc2O1 (configuration not stated),-7,43,104,i,0.97,-4,.
CON(c1nc(N(C)C)nc(N(C)C)n1)S(=O)(=O)c1ccccc1Cl,-29,63,106,i,1.1,-3,-2.4
CCOC(=O)C(=O)Nc1nnc(SCc2ccc(F)cc2)s1,-12,115,103,i,1.2,-3,-0.6
COCCN1C(=O)C(O)=C(C(C)=O)C1c1ccc(OC)c(OC)c1 (configuration not stated),-7,82,97,i,1.1,-4,0.5
CN(Cc1cn(C)nc1-c1ccc(Oc2ccccc2)cc1)CC1COCCO1 (configuration not stated),.,.,100,i,1,5,.
CS(=O)(=O)N(CC(=O)NCCSCc1c(F)cccc1Cl)c1cccc([N+](=O)[O-])c1,-173,44,115,i,1,0,.
Cc1ccc(C(C)C)c(OCc2nn(CC(=O)c3ccc(OC(F)F)cc3)c3[n+]2CCCCC3)c1,.,.,102,i,0.62,-4,.
O=C(c1ccc(F)cc1)C1CCN(C(=S)Nc2ccccc2Cl)CC1,.,.,97,i,0.86,-4,.
COC(=O)c1ccc(NC(=S)Nc2ccc3ccccc3c2)cc1,20,83,96,i,1.1,-11,-0.8
CN(C)c1ccc(C(=S)N2CCCCC2)cc1Br,0,108,108,i,1.1,2,.
O=C1OCC(CO)(CO)N=C1NNc1ccccc1Cl,0,121,96,i,1.1,6,-1.5
O=C(NCc1ccc2c(c1)OCO2)C1CCN(S(=O)(=O)c2cccc3nsnc23)CC1,67,115,103,.,.,-2,-2.0
CCOC(=O)c1ccc(Cl)c(NC(=O)c2cccnc2)c1,.,.,101,i,0.95,-5,.
N#Cc1ccc(Oc2nc(C#N)cc(-c3ccccc3)n2)cc1,-7,138,104,i,0.89,-7,-0.2
COCCN(C(=O)c1ccc2ccccc2c1)c1c(N)n(Cc2ccccc2)c(=O)[nH]c1=O,-4,75,101,i,1.1,-2,.
O=S(=O)(c1ccc(C2=CSC3=NCCN23)cc1)N1CCOCC1,.,.,98,i,0.93,1,-1.8
Cc1sc2nc(N)sc2c1C,-29,97,51,i,1,-4,-2.7
Cc1ccccc1S(=O)(=O)NCc1cccnc1,58,74,99,i,0.95,-5,-0.8
NC(=O)COC(=O)c1cccc(S(=O)(=O)N2CCN(c3ccc(F)cc3)CC2)c1,47,95,101,i,0.98,-6,.
COC(=O)CN(CCc1ccccc1)S(=O)(=O)c1ccc(OC)c(OC)c1,71,80,105,i,0.87,-11,-1.3
O=C(NC1CCS(=O)(=O)C1)c1ccccc1C(=O)c1ccccc1 (configuration not stated),-132,26,103,i,0.93,-8,-0.7
Cc1[nH]c2ccccc2c1/C=N/n1cnnc1,.,.,105,i,0.85,-14,-3.2
COc1ccccc1-n1c(=O)[nH]c2c(C(N)=O)nc(CC(C)C)nc21,.,.,101,i,0.97,7,-2.2
COc1cc2c(cc1NC(=O)c1ccco1)CCCC2,-21,86,100,i,0.92,-3,-2.2
O=C(COc1ccc2ccccc2c1)Nc1ccc(S(=O)(=O)N2CCCCCC2)cc1,-69,102,118,i,0.97,-7,-3.0
Cc1cccc(NC(=O)c2ccc(OC3CSC3)cc2)c1,0,116,101,i,1.1,-3,-0.1
Cc1ccc(C(=O)Nc2cccc(Oc3ccccc3)c2)o1,13,111,103,.,.,7,-0.6
Cc1cccc(NC(=O)CS(=O)(=O)c2cn(C)c3ccccc23)c1C,.,.,101,i,1.1,-10,-1.4
O=C(OCc1ccccn1)c1ccc(COc2ccc3ccccc3c2)o1,.,.,99,i,1.1,.,.
Cn1c(C(O)C(O)c2ccccc2)nc2ccccc21 (configuration not stated),.,.,100,i,1.1,1,.
CNC(=O)NC(=O)C(C)OC(=O)c1oc2ccccc2c1CSc1ccc(Cl)cc1 (configuration not stated),-26,88,59,i,1.1,-4,0.4
Cc1cc(C)n(-c2nc(NCCCN(C)C)c3c4c(sc3n2)COC(C)(C)C4)n1,.,.,100,i,0.95,.,.
O=C(Oc1c(CN2CCOCC2)cc(Cl)c2cccnc12)c1cccs1,.,.,101,i,0.98,3,.
CCCCOc1ccc(CSc2nc(C)[nH]c2[N+](=O)[O-])cc1[N+](=O)[O-],.,.,101,i,0.92,.,.
O=C(CC(NC(=O)c1ccccc1)c1ccccc1)Nc1cccc2ccccc12 (configuration not stated),-17,100,107,i,1,0,1.9
C=CC[N+](C)(C)CC(=O)OCc1ccccc1,7,98,130,i,0.95,-2,-1.1
O=[N+]([O-])c1ccc2nc(-c3ccccc3[N+](=O)[O-])[nH]c2c1,14,150,104,i,0.93,-5,.
O=C1c2ccccc2OCOc2ccccc21,-45,170,108,i,0.85,-10,-1.0
CNC(=S)NNC(=O)c1ccc(=O)n(Cc2cccc(C(F)(F)F)c2)c1,.,.,101,i,1.1,1,.
COC(=O)Nc1ccc(S(=O)(=O)N2CCN(C)CC2)cc1,-39,137,117,i,0.94,11,-0.8
Clc1ccc(-c2ccn[nH]2)cc1,.,.,104,i,0.93,5,.
CCCN1C(=O)/C(=C\C=C2/Sc3ccccc3N2CC)SC1=S,-388,74,95,?,.,-5,.
Cc1cccc2c(=O)c(C(=O)N3CCCCCC3)c[nH]c12,44,60,102,i,0.88,-12,-1.6
COc1ccc(OC)c(NC(=O)c2cnc3ccccn3c2=O)c1,-51,129,.,.,.,9,-1.2
O=C1c2ccccc2N2C(=O)c3ccccc3C2N1Cc1ccccc1 (configuration not stated),.,.,105,i,0.97,.,.
CCCSc1nc(N)c2c3c(sc2n1)CN(C)CC3,.,.,116,.,.,3,-1.2
Cc1cc(Br)ccc1OCCCCNC(C)(C)C,-31,92,89,i,0.92,1,-2.3
O=C(COC(=O)C1(c2ccc(F)cc2)CCCC1)N1CCc2ccccc21,14,76,195,i,1.1,-6,-1.7

# Other structures:
SMILES,INS promoter inh,INS promoter inh cell count,RGS16-Gao HTS,HSV replic up,HSV replic up primary fold,PKD1 kinase inh,GALR2 agonist
Nc1c(C(=O)O)cnn1-c1ccccc1,15,111,101,i,0.86,1,.
CC(OC(=O)Cc1coc2cc3c(cc12)CCC3)C(=O)NC(N)=O (configuration not stated),.,.,100,i,1.1,-7,.
COc1ccccc1N1CCN(C(=O)CSc2nnc(-c3ccoc3C)o2)CC1,.,.,15,i,0.95,5,0.1
O=C(c1cnn(-c2nc3ccccc3s2)c1)c1ccccc1O,.,.,102,i,1,-13,-0.9
CC(C)=CCc1c(O)cc2oc3c(CC=C(C)C)c(O)c(O)c(CC=C(C)C)c3c(=O)c2c1O,.,.,81,i,0.82,.,.
CCOC(=O)C(C)S(=O)(=O)c1ccc(C(F)(F)F)cn1 (configuration not stated),23,105,112,i,0.99,-15,-1.9
CCOC(=O)c1c(-c2ccc(Cl)cc2)csc1NC(=O)CNCc1ccco1,.,.,101,i,0.99,.,.
Clc1cccc(Cl)c1Cn1cc(Br)cn1,-23,78,100,i,0.99,-3,-2.2
O=C(COC(=O)C1CCN(S(=O)(=O)c2cccs2)CC1)c1ccc2c(c1)OCCO2,36,46,82,i,1.1,-5,-4.4
CCN(CC)S(=O)(=O)c1ccc(Cl)c(C(=O)Nc2cc(C)nn2-c2ccccc2C(F)(F)F)c1,.,.,101,i,1.1,-8,0.0
CCCC(=O)NNC(=O)c1c(O)c2ccccc2[nH]c1=O,.,.,104,i,0.92,1,.
CCCC(=O)C1=C(O)C(C(=O)OC)C(C)(C)CC1=NCCCCCC(=O)O (configuration not stated),.,.,110,i,1,.,.
S=c1[nH]nc(COc2ccccc2)n1/N=C/c1ccc(Br)s1,39,66,96,.,.,-7,-2.8
O=C(NCCN1CCCCCC1)C1CCC(CNS(=O)(=O)c2cccc3cccnc23)CC1 (configuration not stated),.,.,107,i,0.87,-4,-2.0
COc1ccc(CCNc2nc(-c3cccnc3)cs2)cc1OC,0,36,103,i,0.87,-9,-1.3
COc1ccc(NC(=O)CN2C(=O)CSC(C)C2=O)cc1 (configuration not stated),.,.,102,i,1.1,-2,.
COC(=O)CCC(=O)N1CCCC(CO)(Cc2ccccc2)C1 (configuration not stated),.,.,102,i,0.91,-3,.
Cc1ccc(OCCSc2cc(C)nc(N)n2)cc1,0,71,146,i,0.86,-9,-0.2
CC(C)NC(=O)COc1ccc(Cl)cc1Cl,-6,83,102,i,0.88,-7,-1.0
O=C(NCc1ccccc1)C(c1ccc(F)cc1)N(Cc1ccco1)C(=O)c1ccccn1 (configuration not stated),15,43,104,i,0.98,5,-2.3

# One compound at a time, as listed above.
# Listed for O=C(NCc1ccccc1)C(c1ccc(F)cc1)N(Cc1ccco1)C(=O)c1ccccn1 (configuration not stated) = INS promoter inh: 15; INS promoter inh cell count: 43; RGS16-Gao HTS: 104; HSV replic up: i; HSV replic up primary fold: 0.98; PKD1 kinase inh: 5; GALR2 agonist: -2.3
# Listed for Clc1cccc(Cl)c1Cn1cc(Br)cn1 = INS promoter inh: -23; INS promoter inh cell count: 78; RGS16-Gao HTS: 100; HSV replic up: i; HSV replic up primary fold: 0.99; PKD1 kinase inh: -3; GALR2 agonist: -2.2

# The list goes on:
SMILES,INS promoter inh,INS promoter inh cell count,RGS16-Gao HTS,HSV replic up,HSV replic up primary fold,PKD1 kinase inh,GALR2 agonist
N#Cc1ccc(C(=O)CSc2n[nH]c(=O)n2Cc2ccco2)cc1,.,.,99,i,0.97,.,.
COc1ccc(C(C(=O)NC2CCCCC2)N(Cc2cccs2)C(=O)Cc2c[nH]c3ccccc23)cc1 (configuration not stated),.,.,99,i,0.8,8,-1.7
COc1cccc2cc(C(N)=O)/c(=N/NC(=O)COc3ccc(Cl)cc3)oc12,26,118,102,i,0.95,-4,-2.3
O=C(NCc1ccccc1)C1=C[C@H](c2coc3ccccc3c2=O)C[C@H](OCc2ccc(CO)cc2)O1,.,.,102,i,0.92,3,.
COc1ccc2c(c1O)-c1ccccc1CCN(C)C2,.,.,95,i,1,1,.
CN(CCC#N)C(=O)Cn1nc(Cc2ccncc2)c2ccccc2c1=O,.,.,113,i,0.97,-8,-2.6
CCOc1cc(C(=S)N2CCOCC2)ccc1O,11,70,63,i,1,-1,-1.5
CC(=O)Nc1ccc(C(=O)OCC(=O)c2ccc(C)c([N+](=O)[O-])c2)cc1,.,.,106,i,0.79,-4,-3.2
CC(=O)OCc1c(COC(C)=O)[n+](=O)c2ccccc2n1[O-],5,74,97,i,0.84,0,-1.6
CCOC(=O)N1CCN(C(=O)C2CCN(S(=O)(=O)c3ccc(F)cc3)CC2)CC1,.,.,96,i,0.95,0,.

# 2 records picked at random from those above:
SMILES,INS promoter inh,INS promoter inh cell count,RGS16-Gao HTS,HSV replic up,HSV replic up primary fold,PKD1 kinase inh,GALR2 agonist
N#Cc1ccc(C(=O)CSc2n[nH]c(=O)n2Cc2ccco2)cc1,.,.,99,i,0.97,.,.
COc1ccc(C(C(=O)NC2CCCCC2)N(Cc2cccs2)C(=O)Cc2c[nH]c3ccccc23)cc1 (configuration not stated),.,.,99,i,0.8,8,-1.7

# Going on with the list:
SMILES,INS promoter inh,INS promoter inh cell count,RGS16-Gao HTS,HSV replic up,HSV replic up primary fold,PKD1 kinase inh,GALR2 agonist
CCOC(=O)Cc1csc(NC(=O)c2cc(OC)cc(OC)c2)n1,41,168,115,i,0.87,-1,-2.0
COC(=O)Nc1sc2c(c1C(=O)NCc1ccco1)CCC2,69,97,99,i,0.9,-4,-2.8
O=C(NC1CCCCC1)C(c1ccc2ncccc2c1)N(Cc1cccs1)C(=O)c1cccs1 (configuration not stated),-18,77,81,i,1,-4,-0.5
O=C(CSc1nncn1-c1ccccc1)Nc1ccc(N2CCOCC2)cc1,-38,206,102,i,0.84,-5,-2.8
Cc1ccc(COCCN2CCN(S(=O)(=O)c3ccc(C)cc3)CCC2=O)cc1,-41,106,104,i,0.95,-4,-2.2
O=C1CC(O)(C(F)F)Oc2ccc3ccccc3c21 (configuration not stated),24,117,98,i,0.91,13,-0.8
Cn1c(=O)c2c(SCc3ccccc3)nc(C3CC3)nc2n(C)c1=O,.,.,80,i,0.99,.,.
CCc1cc(C(=O)NNC(=S)NC(C)c2ccccc2)cs1 (configuration not stated),-7,171,102,i,1.1,-9,-2.3
CCN(C(=O)c1cn(C)c(=O)c2cc(OC)c(OC)cc12)c1cc(C)ccc1C,.,.,99,i,1,-1,-2.4
Cc1ccc(N(CC(=O)N/N=C/c2cccs2)S(C)(=O)=O)cc1,0,62,104,i,0.93,-16,-0.2
O=C(CSc1nc2ccccc2s1)N/N=C/c1ccco1,29,96,101,i,0.99,-4,-0.4

# Assay outcomes (PubChem)
